HSV replic up – HSV replication enhancement; hit rate 0.005% among 220,000; maximum fold increase; AID 1956; HSV replication augmentation in cells, fold increase;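 active = peak rise of 1.5-fold or more in the series; tested in PC3 cells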;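 also: first round at 10 µM; read as green reporter fluorescence; hits show the peak of a series up to 25 µM; 1 = signal of infected wells without compound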
INS promoter inh – TRM-6 insulin promoter activity inhibition | TRM-6 cells (human fetal islet line), insulin promoter-eGFP reporter, imaging; reporter expression induced with tamoxifen | inhibition, % at 2 µM | hit rate 0.9% among 130,000 | AID 1273;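 active = inhibition above the mean plus 3 SD, with well images judged a real hit on visual review, cut at about 60% in these data, passing the limit was not always enough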
GALR2 agonist – agonists of human galanin receptor 2 (GALR2). O43603. GALR2-expressing cells, agonist activation read-out. activation, %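 (tested at 5 µM)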. hit rate 0.48% among 140,000. AID 803;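 active = above mean plus 3 SD of all compounds, about 5% in these data, not always enough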;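 also: 0% = vehicle buffer wells and 100% = reference agonist at full effect; tested in CHO reporter cells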
PKD1 kinase inh – PKD1 (human) kinase inhibition | Q15139 | PKD1 kinase fluorescence polarization assay | inhibition, %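 (about 10 µM by stock and volumes)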 | hit rate 0.056% among 200,000 | AID 797;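 active = inhibition of 50% or more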;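 also: controls were vehicle for no effect and a reference inhibitor for full effect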
Target sequence (Q15139 whole entry, looked up): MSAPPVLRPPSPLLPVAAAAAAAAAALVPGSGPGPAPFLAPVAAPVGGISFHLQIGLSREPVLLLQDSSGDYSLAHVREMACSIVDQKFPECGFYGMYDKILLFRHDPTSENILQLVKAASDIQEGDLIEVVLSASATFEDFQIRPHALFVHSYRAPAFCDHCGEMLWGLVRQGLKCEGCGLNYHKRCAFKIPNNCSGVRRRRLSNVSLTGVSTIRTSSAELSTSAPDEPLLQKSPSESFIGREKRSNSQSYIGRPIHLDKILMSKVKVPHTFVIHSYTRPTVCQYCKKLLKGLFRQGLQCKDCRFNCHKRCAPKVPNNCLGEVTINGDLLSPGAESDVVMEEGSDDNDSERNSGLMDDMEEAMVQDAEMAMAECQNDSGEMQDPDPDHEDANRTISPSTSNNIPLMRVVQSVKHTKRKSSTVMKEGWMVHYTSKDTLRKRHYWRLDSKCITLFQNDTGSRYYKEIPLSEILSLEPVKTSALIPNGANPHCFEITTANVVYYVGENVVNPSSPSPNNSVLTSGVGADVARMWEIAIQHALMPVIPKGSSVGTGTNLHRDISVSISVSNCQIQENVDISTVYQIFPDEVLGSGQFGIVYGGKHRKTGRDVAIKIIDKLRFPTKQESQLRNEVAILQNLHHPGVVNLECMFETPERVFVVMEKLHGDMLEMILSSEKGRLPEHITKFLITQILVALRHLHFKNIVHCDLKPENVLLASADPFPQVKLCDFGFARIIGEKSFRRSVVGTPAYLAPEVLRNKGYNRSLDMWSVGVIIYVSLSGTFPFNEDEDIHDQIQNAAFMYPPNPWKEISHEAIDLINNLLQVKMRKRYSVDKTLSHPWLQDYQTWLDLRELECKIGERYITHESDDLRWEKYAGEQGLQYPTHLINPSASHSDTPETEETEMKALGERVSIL
RGS16-Gao – regulators of human RGS16-Galphao interaction; O15492+P09471; bead-based flow cytometry RGS16-Galphao binding, fluorescence; actives lie on both sides; binding response (% of control), % at 10 µM; hit rate 0.38% among 220,000;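 active = below 25% or above 175%, edge rows of some plates excepted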;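 also: Galphao activated by GDP with aluminum fluoride before binding; 100% = wells without compound and 0% = beads without RGS; some results beyond the cut were filed as inactive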
INS promoter inh cell count – recorded beside INS promoter inh, whose call it bears; normalized cell count, %; measured here: cell count, toxicity; reference of the scale not given here;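 cells exposed to compound for 48 h; stained nuclei by imaging scaled within each plate; lower means fewer cells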
HSV replic up primary fold – further read-out of HSV replic up, marked with its call; fold increase; compound at 10 µM; measured here: primary screen fold increase 10 uM; tested in PC3 cells;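 GFP signal in the first replicate; 1 = infected wells without compound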
The depositor's hits bear a star; i = inactive; . = not tested or not shown; & = joins results of further samples.

The opening 6 records as a preview:
canonical_smiles | HSV replic up | HSV replic up primary fold | INS promoter inh | INS promoter inh cell count | GALR2 agonist | PKD1 kinase inh | RGS16-Gao
CC(NC(=O)Nc1ccccc1F)C(C)(C)C (centres undefined) | i | 1.2 | -11 | 72 | . | -1 | 99
CCNC(=S)NNc1nc(N2CCCCC2)nc(N2CCOCC2)n1 | i | 0.88 | 11 | 131 | . | -4 | 104
CC1CN(C(=O)Cc2ccc(-c3ccccc3)cc2)CC(C)O1 (centres undefined) | i | 1.1 | -74 | 83 | -1.3 | -4 | 100
NNC(=O)CNc1cccc(Br)c1 | i | 0.9 | . | . | . | . | 102
O=C(CSc1ccc([N+](=O)[O-])cc1)Nc1cccc(S(=O)(=O)Nc2ccccc2F)c1 | i | 0.94 | -18 | 96 | . | 4 | 97
Cc1ccccc1NC(=O)Cn1c(=O)n(C)c2ccccc21 | i | 0.87 | . | . | -1.1 | 8 | 99

The whole of this part, from the start:
canonical_smiles | HSV replic up | HSV replic up primary fold | INS promoter inh | INS promoter inh cell count | GALR2 agonist | PKD1 kinase inh | RGS16-Gao
CC(NC(=O)Nc1ccccc1F)C(C)(C)C (centres undefined) | i | 1.2 | -11 | 72 | . | -1 | 99
CCNC(=S)NNc1nc(N2CCCCC2)nc(N2CCOCC2)n1 | i | 0.88 | 11 | 131 | . | -4 | 104
CC1CN(C(=O)Cc2ccc(-c3ccccc3)cc2)CC(C)O1 (centres undefined) | i | 1.1 | -74 | 83 | -1.3 | -4 | 100
NNC(=O)CNc1cccc(Br)c1 | i | 0.9 | . | . | . | . | 102
O=C(CSc1ccc([N+](=O)[O-])cc1)Nc1cccc(S(=O)(=O)Nc2ccccc2F)c1 | i | 0.94 | -18 | 96 | . | 4 | 97
Cc1ccccc1NC(=O)Cn1c(=O)n(C)c2ccccc21 | i | 0.87 | . | . | -1.1 | 8 | 99
COc1ccc(C2=NN(CCC(=O)NCc3ccc4c(c3)OCO4)C(=O)CC2)cc1 | i | 1 | -25 | 101 | -0.3 | 4 | 101
COc1ccccc1NC(=S)N1CCN(C(=O)C2CCCO2)CC1 (centres undefined) | i | 1 | . | . | . | -8 | 102
COc1ccc(Cc2c(O)nc(SCC(=O)c3ccc(OC)cc3)[nH]c2=O)cc1 | i | 0.88 | . | . | . | -6 | 101
Cc1cccc(Cc2nnc(CCC(=O)N(C)C3CCOC3)o2)c1 (centres undefined) | i | 0.96 | -28 | 103 | . | -7 | 99
CC(C)CCNC(=O)CN(Cc1ccc2c(c1)OCO2)C(=O)CCC(=O)Nc1ccccn1 | i | 0.94 | . | . | -2.3 | -4 | 95
Cc1ccc(NC(=O)Cn2c(CCC(=O)O)ccc2-c2cccs2)cc1 | i | 1.1 | . | . | -2.6 | 8 | 103
CCOC(=O)NC1(C(F)(F)F)N=C(c2ccccc2)NC1=O (centres undefined) | i | 0.92 | -19 | 87 | -2.2 | -8 | 88
CCOC(=O)c1ccc(NC(=O)CNC(=O)c2ccccc2)cc1 | i | 0.98 | 3 | 88 | -1.5 | -6 | 96
O=C(C1=C(O)C(=O)N(CCN2CCOCC2)C1c1ccccc1)c1cccs1 (centres undefined) | i | 0.93 | -23 | 62 | 0.4 | -3 | .
Fc1cccc(C2CC(c3cccc(Br)c3)Nc3nnnn32)c1 (centres undefined) | i | 0.8 | -7 | 86 | -1.6 | 1 | 92
Cc1ccc(N2CCN(/N=C/c3c(C)nn(-c4ccccc4)c3Cl)CC2)cc1 | i | 1 | -4 | 74 | -1.7 | -9 | 97
COc1ccc(NCc2nnc(SCC(=O)Nc3cccc(C)c3)o2)cc1 | i | 1 | . | . | -0.2 | 4 | 102
Cc1[nH]nc2oc(=O)c(CCO)c(C)c12 | i | 0.98 | 36 | 148 | -3.5 | 7 | 102
Cc1ccc(-c2nc(=S)c3c(n2CCN2CCOCC2)CC(C)(C)OC3)cc1 | i | 0.91 | 60 | 86 | -3.0 | -9 | 106

The closing two entries of the section before lead into the next:
canonical_smiles | HSV replic up | HSV replic up primary fold | INS promoter inh | INS promoter inh cell count | GALR2 agonist | PKD1 kinase inh | RGS16-Gao
Cc1[nH]nc2oc(=O)c(CCO)c(C)c12 | i | 0.98 | 36 | 148 | -3.5 | 7 | 102
Cc1ccc(-c2nc(=S)c3c(n2CCN2CCOCC2)CC(C)(C)OC3)cc1 | i | 0.91 | 60 | 86 | -3.0 | -9 | 106
Cc1cc(=O)n2nc(-c3ccccc3)sc2n1 | i | 1 | -19 | 149 | -2.7 | -9 | 102
Cc1cc(=O)[nH]c(N/N=C/c2ccccc2C(F)(F)F)n1 | i | 0.96 | . | . | . | -5 | 104
O=C(NC1CCCC1)C1c2ccccc2C(=O)N1CCCN1CCOCC1 (centres undefined) | . | . | 60* | 114* | -1.1 | -8 | 94
CCC(=O)Nc1ccc(C(=O)NNC(=O)c2ccccc2)cc1 | i | 0.97 | . | . | . | 11 | 106
Cc1cc(Oc2ccc(=O)n(C)n2)nc(SCc2ccccc2)n1 | i | 1 | -55 | 111 | . | -6 | 99
COC(=O)NC(NC(=S)Nc1cccc(C)c1)C(Cl)(Cl)Cl (centres undefined) | i | 0.96 | . | . | . | -1 | 104
CCCOc1ccc(CSc2n[nH]c(C)n2)cc1 | i | 1.2 | . | . | . | . | 95
NC(=O)c1sc2cc(C(F)(F)F)cnc2c1-c1ccccc1 | i | 0.9 | . | . | . | 3 | 98
COc1cc2nc(N3CCN(C(=O)c4ccco4)CC3)nc(N)c2cc1OC | i | 0.78&0.85 | 23 | 122 | -1.7 | 3 | 90&93
COc1ccc(OC)c(-n2c(=S)[nH]c3cc(C(=O)N4CCN(c5ccccc5)CC4)ccc3c2=O)c1 | i | 1.1 | . | . | . | 2 | 98
COc1ccc(/C=C/c2nc(-c3ccccc3O)n(-c3ccccc3)n2)cc1 | i | 0.96 | 18 | 146 | -0.3 | 3 | 95
COC(=O)[C@@]1(Cc2ccc(F)cc2)[C@H]2c3cc(C(=O)N(C)C)n(Cc4c(CO)[nH]cc(C)c4=O)c3C[C@H]2CN1C(=O)c1ccccc1 | i | 0.9 | 32 | 96 | -1.0 | 0 | 112
CCc1ccc(-c2csc(-c3c[nH]c4ccccc34)n2)cc1 | i | 1 | 9 | 79 | 1.3 | 6 | 106
Nc1nonc1C(=O)NCCNS(=O)(=O)c1ccc(Br)cc1 | i | 0.96 | -46 | 90 | -4.0 | -6 | 102
Cc1cc(OCCN2CCCC2)ccc1C(C)C | i | 1 | 62 | 64 | -0.2 | -3 | 185
CCC(C)NC(=O)CC(c1ccccc1)c1cc(C)ccc1O (centres undefined) | i | 0.99 | . | . | . | -5 | 99
Cc1ccc(S(=O)(=O)Nc2cccc(-c3cn4ccsc4n3)c2)cc1 | i | 0.86 | 20 | 104 | -1.6 | -6 | 103
CCc1ccc(N2CC(C(=O)Nc3ccc(C)c(S(=O)(=O)N4CCOCC4)c3)CC2=O)cc1 (centres undefined) | i | 0.91 | -8 | 64 | -1.0 | -2 | 168
CCOC(=O)C1CCN(C(=O)CSCCSCC(=O)N2CCC(C(=O)OCC)CC2)CC1 | i | 0.9 | -126 | 45 | 0.0 | -8 | 100
CCCNCC1C(Oc2ccc(Cl)cc2Cl)C(=O)N1c1cccc(C)c1C (centres undefined) | i | 0.86 | -208 | 68 | . | -6 | 98
CCOC(=O)c1cc2c(=O)n3ccccc3nc2n(Cc2ccco2)c1=NC(=O)c1cccc(OC)c1 | i | 1 | 27 | 77 | . | -8 | 159
Cc1c2c(nc3c(C(=O)NC4CC4)cnn13)CCCC2 | i | 0.82 | . | . | -0.4 | -11 | 105
Cc1cc(NC(=O)c2ccccc2)n(-c2nc3ccccc3[nH]2)n1 | i | 0.8 | 27 | 128 | . | 2 | 90
CC(C)CCOCC(O)CCC(=O)NNC(=S)Nc1ccccc1 (centres undefined) | i | 0.97 | . | . | -0.9 | -11 | 102
O=C(CN1CCOCC1)NNC(=S)Nc1ccccc1 | i | 0.89 | . | . | . | 3 | 99
O=C(CCc1ccccc1)c1ccc2c(c1)OCCCO2 | i | 0.88 | 36 | 106 | -2.6 | 2 | 97
CCOc1ccc(C(=O)NC(=S)Nc2cccc(NC(=O)c3ccco3)c2)cc1[N+](=O)[O-] | i | 0.74 | . | . | 0.3 | -6 | 99
CC1(C)CC(C)(c2ccc(O)cc2O)N(c2ccc3ccccc3c2)C(=S)N1 (centres undefined) | i | 0.95 | 10 | 92 | -0.3 | -2 | 102
CC1CCN(S(=O)(=O)c2ccc(S(=O)(=O)NCc3ccccc3)cc2)CC1 | i | 0.98 | -6 | 156 | -1.6 | -7 | 103
CCOc1ccc(OCC)c(NC(=O)CNS(=O)(=O)c2cccs2)c1 | i | 0.96 | -7 | 98 | -1.9 | -12 | 102
CCCCc1cc(=O)oc2cc(OCC(=O)N(CC)CC)c(Cl)cc12 | i | 0.81 | . | . | 0.9 | 1 | 106
CCOC(=O)N1CCN(C(=O)/C(=C/c2cccs2)NC(=O)c2cccs2)CC1 | i | 0.75 | 38 | 73 | . | 0 | 103
O=C1C2C3C=CC(C3)C2C(=O)N1c1cccnc1 (centres undefined) | i | 0.8 | -19 | 134 | -1.7 | -3 | 86
COc1cc(C=C2C(=O)c3ccccc3C2=O)cc(OC)c1OC | i | 1.8 | -404 | 68 | . | -5 | 91
O=C(Cc1ccccc1)NC(=S)Nc1cccc(C(F)(F)F)c1 | i | 1 | 16 | 66 | 1.4 | 2 | 103
COc1cnc(SCC(=O)O)[nH]c1=O | i | 0.78 | -68 | 137 | -2.2 | -9 | 101
O=C(NCCO)c1ccc2[nH]c3ccccc3c2c1 | i | 0.86 | -32 | 124 | -3.2 | 7 | 80
CCCCCCCOC(=O)c1ccc(OC(=O)c2cccnc2)cc1 | i | 0.82 | -19 | 180 | 1.1 | -2 | 100
Cc1ccc(C(C)C)cc1OCCOCCN1CCCC1 | i | 1 | -38 | 39 | -0.7 | 2 | 115
Cc1ccc(C(=O)n2c3ccccc3c3ccccc32)cc1 | i | 0.51 | -88 | 88 | -0.4 | -10 | 104
C=CCOC(=O)C1=C(C)N=C2SCCC(=O)N2C1/C=C/c1ccccc1 (centres undefined) | i | 0.91 | . | . | . | -9 | 102
O=C(NCCCN1CCOCC1)c1cc2c(s1)CCC2 | i | 0.78 | 7 | 101 | -0.1 | 0 | 470
Cc1nc2ccc3nc(NC(=O)C4COc5ccccc5O4)sc3c2s1 (centres undefined) | . | . | 57 | 139 | 0.0 | -4 | 99
Cc1ccc(/C=C/C(=O)Nc2ccc([N+](=O)[O-])cc2)o1 | i | 0.9 | -13 | 144 | -1.7 | 3 | 87
O=C(CSCc1ccc(Br)cc1)Nc1ccc(S(=O)(=O)N2CCOCC2)cc1 | i | 0.83 | . | . | -2.5 | 3 | 94
Cc1cc(C)cc(-n2c(C)cc(/C=N/NC(=O)c3cccc([N+](=O)[O-])c3C)c2C)c1 | i | 0.92 | -21 | 127 | -2.0 | 2 | 104
COc1cccc(/C=N/NC(=O)C(C)n2nc(C)c([N+](=O)[O-])c2C)c1O (centres undefined) | . | . | . | . | -1.2 | -3 | 83
CCOCCCNCC(=O)NC1(C)C2CCC(C2)C1(C)C (centres undefined) | i | 0.92 | 3 | 141 | -1.9 | -8 | 107
CCOc1cccc(/C=N/N2C(=O)CSC2=S)c1O | i | 0.99 | . | . | . | -3 | 88
O=C(Nc1cc(C(F)(F)F)ccc1N1CCOCC1)c1ccc2ccccc2n1 | i | 1 | 24 | 75 | -1.3 | -6 | 101
NC(=O)C1CCN(S(=O)(=O)Cc2ccccc2Cl)CC1 | i | 1.1 | . | . | . | 2 | 109
CCn1c(SCC(=O)c2ccc(Cl)cc2)nnc1C(C)C | i | 0.96 | -8 | 91 | -0.3 | -14 | 91
Cc1ccc(N(C(=O)Cn2nnc(-c3cccs3)n2)C(C(=O)NC2CCCC2)c2ccncc2)cc1 (centres undefined) | i | 0.89 | 23 | 119 | -1.2 | -7 | 100
Cc1ccccc1CN(c1ccc(C(=O)NCc2ccccn2)cc1)S(C)(=O)=O | i | 0.94 | -21 | 120 | . | 5 | 101
CCOc1ccccc1C(=O)Nc1ccc2nc(N3CCN(c4ncccn4)CC3)cc(C)c2c1 | . | . | -11 | 138 | 0.8 | -4 | .
Cc1nn(C)cc1/C=N/NC(=O)Cn1cncn1 | i | 1 | . | . | . | . | 102
COc1ccccc1NCC(=O)N/N=C(\C)c1ccc(Br)s1 | i | 1 | 7 | 128 | -1.2 | -9 | 97
COC(=O)CN1C(=O)N/C(=C/c2ccc(C)o2)C1=O | i | 1 | . | . | . | -5 | 96
CCn1c(=O)c2c(n3cnnc13)-c1ccccc1CC21CCCCC1 | i | 0.86 | -10 | 113 | -1.1 | 4 | 93
O=C(OCCN=C1NS(=O)(=O)c2ccccc21)c1cccs1 | i | 0.94 | . | . | . | -10 | 83
Cc1nc2c(ccc3c2ccc2nc(C)sc23)s1 | i | 0.96 | 25 | 62 | 0.6 | 1 | 98

Screening data deposited in PubChem BioAssay by several laboratories.
